# Bioassay records: PubChem, National Center for Advancing Translational Sciences (NCATS)
# Rango dissoc inh: prevents RanGTP from dissociating the Rango-importin beta complex | O95149+P62826 | Biochemical FRET Rango-importin beta, RanGTP-induced dissociation | Potency, µM (highest dose often 46.1 µM), without a hit: top-dose activity change, negative = inhibition | 340,000 compounds, 0.071% hits; active means falling FRET ratio curve, often poorly fitted, with flat reads before Ran was added; inconclusive means other falling curves, or compound fluorescence or quenching; inactive means flat or rising ratio curve;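 note: potency is the fitted concentration of half-maximal effect; % of control where 0% means no effect; nearly all actives have a fitted effect of over 45% in size; -100% = wells without RanGTP and RCC1; the record marks most hits as doubtful in a second field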
#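 Rango (0.1 uM)–importin beta (0.25 uM) complex; RanGTP-RCC1 trigger; 45 min RT; CFP/YFP FRET read.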
# Rango complex inh: Rango-importin beta binding inhibition; 340,000 compounds, 0.031% hits; Rango CFP/YFP FRET sensor + importin beta, 45 min; Potency, µM (titrated, usually from 92.2 µM), inactives show at the top dose inhibition of complex formation; AID 540263; active = rising FRET ratio curve, often small or poorly fitted; inconclusive = mostly compound fluorescence or quenching in the first reads; inactive = flat curves in all reads;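 note: potency is the fitted concentration of half-maximal effect; 0% = DMSO wells and 100% = buffer wells lacking importin beta; nearly all actives have a fitted effect of over 15% in size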
#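 FRET biosensor Rango (snurportin 1 IBB between N-terminal EYFP and C-terminal Cerulean), 50 nM in PBS/1 mM DTT/0.02% Tween-20/0.1% BSA, preincubated 5 min RT with compound; 0.125 microM importin beta added, 45 min RT, CFP/YFP FRET ratio read.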
# GLA inh pH 4.5: alpha-galactosidase A (human) inhibition, pH 4.5; P06280; purified enzyme, 4-MU-alpha-Gal fluorescence, pH 4.5; activity change, negative = inhibition, % at 105 µM; 230,000 tested, under 10 active; AID 1467; inconclusive = small, poorly fitted or top-dose-only inhibition, or a rising curve; inactive = flat fitted curve, though single readings scatter; no compound was filed as active;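 note: 0% = full activity with enzyme and -100% = basal without enzyme; dose as in the result columns while the protocol names 77 µM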
# Target sequence (P06280 whole entry, looked up): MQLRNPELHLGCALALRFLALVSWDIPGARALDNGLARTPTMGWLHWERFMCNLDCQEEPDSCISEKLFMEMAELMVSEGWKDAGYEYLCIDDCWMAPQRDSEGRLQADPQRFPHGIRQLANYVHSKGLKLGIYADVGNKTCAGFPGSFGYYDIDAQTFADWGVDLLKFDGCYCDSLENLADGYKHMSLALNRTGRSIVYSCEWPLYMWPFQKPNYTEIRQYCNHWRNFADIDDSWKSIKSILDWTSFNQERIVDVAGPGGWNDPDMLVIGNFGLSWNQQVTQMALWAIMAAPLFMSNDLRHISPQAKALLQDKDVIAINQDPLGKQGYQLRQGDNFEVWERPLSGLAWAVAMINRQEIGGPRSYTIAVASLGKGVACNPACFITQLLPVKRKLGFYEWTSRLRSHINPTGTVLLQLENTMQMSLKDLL
# miR-21 reporter: raises the signal of a miR-21 reporter; HeLa miR-21 FLuc reporter, luciferase, 48 h; Potency, µM (highest dose often 38.3 µM), inactives show at the highest dose reporter change, positive = more light; 340,000 tested, under 10 active; AID 2288; active = well fitted rising curve with a large enough effect; inconclusive = small, poorly fitted or top-dose-only effect; inactive = no such curve, though single readings can be large or run the other way;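 note: % of control where 0% means no effect; miR-21 action dims this reporter so a rising signal means less miR-21 action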
#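 HeLa miR-21-FLuc reporter line, endogenous miR-21; 2000 cells/well in DMEM/10% FBS; compound titration up to ~40uM final, 48 h, 37 degree Celsius; luciferase detection reagent, 15 min lysis, CCD luminescence.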
# * = called active by the depositor; u = inconclusive; x = not tested or not shown; & = joins results of further samples.
Rango dissoc inh	GLA inh pH 4.5	miR-21 reporter	Rango complex inh	SMILES
-5%	-2	-7%	-6.0%	CCc1nc(C)c(-c2ccccc2)c(=O)[nH]1
10%	0	-37%	-0.1%	CNS(=O)(=O)c1cccc(C(=O)OCC(=O)Nc2sc3c(c2C#N)CCCCC3)c1
1%	2	6%	-2.9%	Cc1cc(Oc2ccc(C#N)cc2)nc(NCc2ccccc2)n1
6%	x	x	-3.1%	CC(=O)Nc1ccc(S(=O)(=O)NC2CC(=O)N(c3ccc(C)cc3)C2)cc1 (centres undefined)
5%	x	-1%	-1.6%	O=C(CCC(=O)N1CCOc2ccccc21)NC1CCN(Cc2ccccc2)CC1
4%	x	-2%	-1.3%	CCCCNC(=O)C1Cc2cc(S(=O)(=O)N3CCCC3)ccc2N1C(C)=O (centres undefined)
-1%	-2	-2%	4.2%	Cc1cccc(N2CCN(c3nnnn3-c3ccccc3)CC2C)c1 (centres undefined)
-9%	x	-3%	0.0%	COc1ccc(NC(=O)NNC(=O)c2cc3occc3n2C)c(OC)c1
0%	x	-8%	1.9%	CC1CCN(C(=O)COc2ccc(S(=O)(=O)N3CCCC3)cc2)CC1
u	x	-1%	u	CC(C)C(=O)Nc1sc2c(c1C(N)=O)CCN(Cc1ccccc1)C2
6%	10	-2%	-4.0%	CC(C)CC(C(=O)N1CCc2ccccc2C1)N1C(=O)c2ccccc2C1=O (centres undefined)
9%	10	5%	0.6%	O=C(COc1ccc(Cl)cc1)NCc1nnc(SCC(=O)N2CCCc3ccccc32)o1
1%	0	-11%	1.5%	O=C(NNC1CC(=O)N(c2ccc(Cl)cc2)C1=O)c1ccccn1 (centres undefined)
-4%	x	1%	1.5%	CCc1cccc(C)c1NC(=O)C1CCCN1C(=O)NCc1ccccc1 (centres undefined)
-3%	x	0%	9.1%	CCOc1cc(Br)cc(/C=C2\SC(=Nc3ccccc3)NC2=O)c1O
-2%	3	0%	-0.8%	COCCNC(=O)NC(=O)COC(=O)c1cc([N+](=O)[O-])ccc1Sc1nc(C)cs1
-12%	x	-1%	1.3%	O=C(CN(CC1CCCO1)C(=O)CNS(=O)(=O)c1ccccc1)NCc1ccc(F)cc1 (centres undefined)
13%	x	x	-2.8%	Cc1ccc(S(=O)(=O)NCc2ccccc2)cc1C(=O)N1CCCCCCC1
-5%	-5	0%	0.8%	CC1(C)CC(=O)C(N=Nc2cccc(S(=O)(=O)N3CCOCC3)c2)=C(O)C1
-2%	x	x	3.7%	c1ccc(CCCCc2ccccn2)cc1
-2%	-5	-3%	-3.5%	Cc1nn(-c2ccccc2)c(Cl)c1/C=C1\C(=O)N(C)C(=S)N1C
-11%	x	-2%	-3.1%	COc1ccc(S(=O)(=O)N2CCC(C(=O)NC3CCCCC3C)CC2)cc1 (centres undefined)
2%	-2	-8%	0.1%	CNC(=O)C1Cc2ccccc2CN1S(=O)(=O)c1cccs1 (centres undefined)
7%	-7	-39%	-2.4%	COc1ccccc1OCc1ccc(C(=O)N(C)C)o1
16%	0	0%	-4.6%	CC1(C)CN(c2ccc(CC#N)cc2)C1=O
-11%	3	5%	-1.1%	Cc1ccc(CN(CC2CCCO2)C(=O)CN2C(=O)C(C(C)C)Oc3ccccc32)o1 (centres undefined)
-3%	-7	-11%	-1.7%	COC(=O)c1c(NC(=O)c2ccco2)sc2c1C(C(=O)OC)CC2 (centres undefined)
1%	x	x	2.5%	C[C@H](CO)N1C[C@H](C)[C@@H](CN(C)S(C)(=O)=O)Oc2c(NC(=O)Nc3ccc4c(c3)OCO4)cccc2C1=O
-4%	1	-2%	-2.6%	COCCCNc1nc(N)c([N+](=O)[O-])c(Nc2ccccc2OC)n1
-8%	x	15%&16%	-0.2%	Cn1cc(C(=O)Nc2ccc(C#N)cc2)c2ccccc2c1=O
-5%	x	x	-6.1%	COCCN(C(=O)COC(=O)c1ccc(-c2ccccc2)cc1)c1c(N)n(Cc2ccccc2)c(=O)[nH]c1=O
-7%	-8	6%	-1.9%	O=C(Cn1c(=O)sc2ccccc21)Nc1ccc(S(=O)(=O)N2CCCCC2)cc1
5%	4	-14%	2.9%	O=C(c1ccc(C(F)(F)F)cc1)C1CCCN(C(=O)CCc2cnccn2)C1 (centres undefined)
12%	x	x	-3.2%	CCCn1c(N)c(N(CCOC)C(=O)c2cccc(S(=O)(=O)N3CCCc4ccccc43)c2)c(=O)[nH]c1=O
1%	x	0%	-1.6%	Nc1nc(NCc2ccccc2)n(-c2ccccc2)n1
-3%	x	x	-0.3%	O=C(COC(=O)c1ccc2c(c1)OCCO2)NC1CCCCC1
-4%	x	x	-2.6%	O=C(/C=C/c1ccc([N+](=O)[O-])cc1)Nc1cccc(S(=O)(=O)NC2=NCCCCC2)c1
2%	-10	-2%&-7%	-1.1%	COC(=O)c1cc2occc2n1Cc1nc(-c2cccc(Cl)c2)oc1C
7%	-4	2%	0.2%	CCNC(=O)COC(=O)C1CCC(=O)N(c2ccc(OC)cc2)C1c1ccc(OC)cc1 (centres undefined)
2%	x	u	1.1%	COC(=O)c1cc(C)nc2c1C(=O)C(=O)C=C2N1CCOCC1
11%	x	x	0.1%	CC(=O)Nc1ccc(NC(=O)C(C)OC(=O)c2cccc(S(=O)(=O)N3CCCC3)c2)cc1 (centres undefined)
18%	-5	-1%	-0.1%	COC(=O)c1ccc(Cl)c(NC(=O)NC23CC4CC(CC(C4)C2)C3)c1
3%	x	x	1.2%	CNC(=O)c1nn(C)c(=O)[nH]c1=O
1%	x	x	1.5%	Nc1cc2c(cc1Cl)-c1ccc(Cl)cc1C2
-20%	x	x	u	CCOC(=O)C1=C(C2=CCCCC2)c2ccc(OC)cc2N(S(=O)(=O)C(F)(F)F)C1C(=O)OCC (centres undefined)
-9%	7	-11%	-1.2%	NC(=S)N/N=C/c1c[nH]c2ccccc12
-9%	16	2%	u	COc1ccc2oc(=O)c(C(=O)N3CCCC3)cc2c1
6%	-14	-6%	-0.2%	O=C(c1cc(C(=O)NCCc2ccccc2)c(=O)n(CCc2ccccc2)c1)c1cc(Cl)ccc1O
2%	3	-67%	8.1%	Cc1c(Br)c(C(=O)N2CCc3ccccc32)nn1C
2%	x	0%	1.0%	Cc1cc(C)c(C(=O)C(C)OC(=O)c2ccc(Cl)nc2)cc1C (centres undefined)
-7%	-2	-6%	0.2%	CC(=O)Nc1ccc(-c2csc(NC(=O)c3ccc(C)o3)n2)cc1
-15%	x	x	1.4%	Cc1[nH]c2ccccc2c1C(=O)C(=O)NC1CC(=O)N(c2ccc(F)cc2)C1 (centres undefined)
5%	x	x	-4.1%	COc1ccc(CC(=O)OCC(=O)N2CCN(S(=O)(=O)c3ccc(C)cc3C)CC2)cc1
2%	-16	-54%	-1.6%	O=S(=O)(c1ccc(Cl)s1)N1CCCc2cccc(O)c21
-7%	-2	-8%	0.4%	Cc1nc2ccccc2nc1OCC(=O)Nc1cc(C(F)(F)F)ccc1N1CCOCC1
1%	x	3%	-1.6%	C[C@H](NC(=O)c1nc[nH]c1C(=O)NCC(=O)OCc1ccccc1)C(=O)OC(C)(C)C
-13%	13	-4%	9.4%	Cn1c(=O)oc2cc(S(=O)(=O)NCCN3CCCCCC3)ccc21
-8%	x	2%	-1.8%	O=C1COc2ccc(S(=O)(=O)N3CCCC3)cc2N1
23%	3	-1%	-4.7%	COc1ccc(OCC(=O)O/N=C(\N)Cc2ccc(Cl)cc2)cc1
-5%	2	-1%	-2.1%	O=C(NCCOc1ccccc1Cl)C(=O)NCCOc1ccccc1Cl

# At a glance, 2 of the compounds above:
Rango dissoc inh	GLA inh pH 4.5	miR-21 reporter	Rango complex inh	SMILES
2%	-16	-54%	-1.6%	O=S(=O)(c1ccc(Cl)s1)N1CCCc2cccc(O)c21
-7%	-2	-8%	0.4%	Cc1nc2ccccc2nc1OCC(=O)Nc1cc(C(F)(F)F)ccc1N1CCOCC1

# Additional structures follow:
Rango dissoc inh	GLA inh pH 4.5	miR-21 reporter	Rango complex inh	SMILES
10%	2	-1%	-0.2%	COc1cc(N2C(=O)NC3CC2(C)Oc2ccccc23)cc(OC)c1OC (centres undefined)
4%	1	u	0.8%	O=C(N1CCOCC1)n1nnc2ccccc21
25%	-2	-7%	-5.9%	CCOC(=O)N1CCN(S(=O)(=O)c2cc(Cl)c(OC)cc2Cl)CC1
31%	1	0%	2.4%	Cc1cccc(C(=O)C2CCOC(C)(C)C2)c1 (centres undefined)
-6%	-2	17%	-1.7%	CCCCCCCCCCCC(=O)NC(C(=O)OCC)C(O)c1cccc([N+](=O)[O-])c1 (centres undefined)
-4%	-5	-13%	-2.1%	O=C(Nc1nnc(C2CCCCC2)s1)c1ccc(Br)s1
12%	0	-3%	-0.6%	O=C(O)c1cc2n(n1)CCN(Cc1ccccc1Cl)C2=O
-4%	-3	-7%	1.5%	COc1cc(NC(=O)c2cc3c(Cl)nc4ccccc4c3s2)cc(OC)c1OC
9%	3	2%	2.3%	CCOc1c(Br)cc(CNC2CCCCCCC2)cc1OC
0%	-13	11%	0.1%	CC(=O)c1ccc(N2CCN(C(=O)c3nn(Cc4ccccc4)c(=O)c4ccccc34)CC2)cc1
-2%	x	-1%	-3.1%	O=C(Cn1nnc(-c2ccc([N+](=O)[O-])cc2)n1)NNC(=O)c1ccccc1
-11%	x	x	0.7%	CCCCN(C(=O)C1CCCO1)c1c(N)n(CCC)c(=O)[nH]c1=O (centres undefined)

# Full records as entered above. Values in the order: Rango dissoc inh	GLA inh pH 4.5	miR-21 reporter	Rango complex inh
# `CCOc1c(Br)cc(CNC2CCCCCCC2)cc1OC` in the list: 9%	3	2%	2.3%
# `CC(=O)c1ccc(N2CCN(C(=O)c3nn(Cc4ccccc4)c(=O)c4ccccc34)CC2)cc1` in the list: 0%	-13	11%	0.1%
# `O=C(Nc1nnc(C2CCCCC2)s1)c1ccc(Br)s1` in the list: -4%	-5	-13%	-2.1%
# `COc1cc(NC(=O)c2cc3c(Cl)nc4ccccc4c3s2)cc(OC)c1OC` in the list: -4%	-3	-7%	1.5%

# (next part)
Rango dissoc inh	GLA inh pH 4.5	miR-21 reporter	Rango complex inh	SMILES
-12%	x	-19%	-0.4%	COC(=O)c1ccc(NC(=O)CS(=O)(=O)c2ccccc2)cc1
-4%	-2	-3%	-2.6%	Cc1ccc(-n2c3c(cc(C(=O)NCc4ccco4)c2=O)C(=O)CCC3)cc1
3%	x	x	-4.7%	CC1CCN(C(=O)c2[nH]cnc2C(=O)N[C@@H](C)c2ccccc2)CC1
10%	0	-1%	-0.1%	Cc1ccc(CNC(=O)CCS(=O)(=O)c2ccc(Br)s2)o1
2%	7	-13%	4.0%	Cc1ccc(Nc2nc(C)cc(C)n2)c(Br)c1
1%	x	1%&3%	0.1%	Cc1ccc(S(=O)(=O)Nc2c(C)nc3nc(C)[nH]n3c2=O)c(C)c1
u	1	0%	u	NC(=S)N/N=C\c1c2ccccc2cc2ccccc12
x	0	22%	x	O=C(/C=C/c1ccc2c(c1)OCO2)Nc1nc(-c2ccc(F)cc2)cs1
-5%	-6	0%	1.7%	CCOc1ccc(C2C(C(=O)c3cccs3)=C(O)C(=O)N2CCCn2ccnc2)cc1 (centres undefined)
2%	-14	-6%	2.3%	C=CCOC(=O)C1=C(C)N=C2SCCC(=O)N2C1/C=C/c1ccccc1OC (centres undefined)
-10%	-10	-5%	-0.1%	CCN1CCN(C(=O)C2=C(C(=O)O)CCCC2)CC1
4%	-2	1%	1.8%	CCOC(=O)c1c(NC(=O)c2ccccc2Br)sc2c1CCc1ccccc1-2
7%	x	x	4.8%	CCOc1ccc(NC(=O)CN(C)C(=O)c2c(-c3c(F)cccc3Cl)noc2C)cc1OCC
-19%	x	10%	-2.3%	COc1ccc(/C=N\NC(=O)c2ccccc2)cc1COc1ccc(F)cc1
0%	5	2%	0.2%	Cc1nn(-c2ccccc2)nc1C(=O)NNC(=O)c1ccc(C(F)(F)F)cc1
-2%	10	-46%	4.0%	O=C(Nc1ccc2oc(-c3ccccc3Cl)nc2c1)c1cncc(Br)c1
-12%	5	0%	-0.5%	COc1ccc2cc(C(C)=O)c(=O)oc2c1
3%	x	-4%	-3.6%	CC(NC(=O)c1cc(F)c(F)c(F)c1F)c1ccc(-n2ccnc2)cc1 (centres undefined)

# Only part of the results is shown; the hit share may differ from the screen's.
